Screening data deposited in PubChem BioAssay by several laboratories.
Beta2AR agonist: beta2AR agonists driving receptor internalization, primary screen, cell-based, FAP fluorogen, flow cytometry | response, % (test concentration not listed) | Am2.2-beta2AR cells; reference of the scale not given here | Beta-2 adrenergic receptor (Homo sapiens), P07550 | 0.43% of 340,000 active;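 active = response above a set limit, near 3 SD of response in nonfluorescent compounds, cut at about 42% in these data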;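 also: stock transfer was 100 nL into about 11 µL; a reference agonist was the positive control; negative values mostly stem from fluorescent compounds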
Target sequence (P07550 whole entry, looked up): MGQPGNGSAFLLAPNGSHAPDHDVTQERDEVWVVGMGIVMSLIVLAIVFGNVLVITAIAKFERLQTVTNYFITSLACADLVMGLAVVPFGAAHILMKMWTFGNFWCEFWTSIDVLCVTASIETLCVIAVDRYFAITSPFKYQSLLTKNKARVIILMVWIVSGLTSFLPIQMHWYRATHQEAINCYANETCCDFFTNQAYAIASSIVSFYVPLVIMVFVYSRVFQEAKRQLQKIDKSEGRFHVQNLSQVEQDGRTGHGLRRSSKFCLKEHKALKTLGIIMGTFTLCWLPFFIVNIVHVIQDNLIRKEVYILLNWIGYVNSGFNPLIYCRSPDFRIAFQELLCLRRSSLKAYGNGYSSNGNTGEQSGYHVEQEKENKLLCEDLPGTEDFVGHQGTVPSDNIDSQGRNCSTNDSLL
ALR inh: inhibitors of human ALR sulfhydryl oxidase, primary screen, biochemical, H2O2 detection, HRP-luminol luminescence, single point; 3.8% of 290,000 active; inhibition, % (test concentration not listed); purified ALR, DTT oxidation;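 active = mean and each replicate at 75% or more; inconclusive = only one of the two met; inactive = neither met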;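 also: stock transfer was 7.5 nL into about 7.5 µL; 0% = neutral wells and 100% = wells with inactivated enzyme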
Target sequence (P55789 whole entry, looked up): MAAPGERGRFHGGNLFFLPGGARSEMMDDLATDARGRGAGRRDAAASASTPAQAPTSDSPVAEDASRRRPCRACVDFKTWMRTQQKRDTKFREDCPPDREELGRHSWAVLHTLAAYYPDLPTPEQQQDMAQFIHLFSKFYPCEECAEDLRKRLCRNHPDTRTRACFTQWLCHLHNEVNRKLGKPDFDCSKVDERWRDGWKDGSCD
RanGTP-Impb inh: inhibitors of RanGTP-importin-beta interaction, primary screen, biochemical, FRET, CFP-Ran, YFP-importin-beta, homogeneous; inhibition, % (no concentration beside the values); AID 2216, 2009; 1.1% of 300,000 active; Ran GTPase (GTP-bound) - importin-beta complex; cell-free CFP-Ran/YFP-importin-beta FRET ratio;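 active = most replicates above 15%; inconclusive = exactly half above 15%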;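 also: 0% = DMSO wells and 100% = Ran loaded with GDP instead of GTP; wells of about 40 µL received 100 nL stock; the first replicate is given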
LANA-H2B inh: blockers of LANA interaction with H2A/H2B – biochemical, FP readout, HTS, primary screen; inhibition, % (test concentration not listed); 0.6% of 320,000 active; cell-free LANA-H2A/H2B peptide, fluorescence polarization; Protein LANA1 (Human herpesvirus 8 type P (isolate GK18)), Q9QR71; in the data active = inhibition mostly above about 10%, no sharp cut-off; inactive = mostly below about 6.7%;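 also: stock transfer was 7.5 nL into about 10 µL; 0% = median of vehicle wells and 100% = median of positive control wells; one replicate is shown; the record names a cut of 25% in any replicate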
Calb FLC: C. albicans growth inhibition with fluconazole, primary screen, CaCi-2 strain, Alamar Blue fluorescence | C. albicans CaCi-2 (fluconazole-resistant clinical isolate) + fluconazole, 48 h | growth inhibition, % (test concentration not listed) | 0.57% of 300,000 active;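 active = most replicates above 75%; inconclusive = exactly half above 75%; inactive = most below 75%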;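 also: all wells also contain fluconazole at 8 µg/ml as a sub-toxic cotreatment; 0% = median of DMSO wells and 100% = median of geldanamycin control wells; wells of about 8 µL received 7.5 nL stock; the first replicate is given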
Vif TR-FRET: inhibitors of Vif binding to APOBEC3G peptide, primary screen, biochemical, TR-FRET, GST-Vif 1-94, biotin-A3G peptide, dose response retest (AID 1117319); Virion infectivity factor (Human immunodeficiency virus type 1 group M subtype B (isolate …; TR-FRET GST-Vif / biotin-A3G peptide binding; higher % means a stronger effect; test concentration not given here; strong numbers were not always called active; inhibition, %, or IC50 in µM where a hit was titrated; 0.57% of 260,000 active;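 active = above the screen mean plus three standard deviations and confirmed in dose response; inconclusive = results disagree or hit not tested in dose response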;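 also: Vif residues 1-94 fused to GST binding biotinylated APOBEC3G peptide 110-148; 0% = full assay without inhibitor and 100% = GST in place of GST-Vif; retest series ran down from 100 µM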
HNF4A DNA FP: change in binding of human HNF4A to DNA, primary screen, biochemical, fluorescence polarization, FITC-DNA; 1 h; Hepatocyte nuclear factor 4-alpha (Homo sapiens), P41235; activity change, % at 10 µM; 0.3% of 360,000 active; AID 1224865, 2016; in the data active = activity change above about 30%, passing the limit was not always enough;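 also: controls were the assay level and a saturating level of protein; the project sought stronger binding though the title names inhibitors; some compounds called inactive have numbers as strong as hits; positive values seem to mean higher polarization but the record does not say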
Target sequence (P41235 whole entry, looked up): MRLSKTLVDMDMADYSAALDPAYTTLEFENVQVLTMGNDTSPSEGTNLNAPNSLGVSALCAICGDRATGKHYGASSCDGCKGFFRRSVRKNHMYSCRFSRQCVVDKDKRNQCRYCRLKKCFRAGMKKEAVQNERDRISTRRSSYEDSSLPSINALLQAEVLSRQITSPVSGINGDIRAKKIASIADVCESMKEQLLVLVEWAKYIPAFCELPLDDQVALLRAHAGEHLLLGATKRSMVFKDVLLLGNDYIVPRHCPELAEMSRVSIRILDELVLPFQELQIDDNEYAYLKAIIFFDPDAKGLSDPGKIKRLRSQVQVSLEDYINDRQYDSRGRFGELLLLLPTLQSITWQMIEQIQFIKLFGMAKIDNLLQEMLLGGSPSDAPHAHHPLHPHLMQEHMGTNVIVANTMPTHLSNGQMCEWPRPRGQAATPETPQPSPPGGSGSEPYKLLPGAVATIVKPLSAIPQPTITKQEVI
* = called active by the depositor; i = inactive; ? = inconclusive; . = no result given; & = joins results of further samples.

SMILES | Beta2AR agonist | ALR inh | RanGTP-Impb inh | LANA-H2B inh | Calb FLC | Vif TR-FRET | HNF4A DNA FP
CC1CCCC(C)N1C(=O)CCN1C(=O)C2C3C=CC(C3)C2C1=O (stereo not given) | -4 | -4 | 1.0 | 3.3 | -3 | 19% | 4.0
N#C/C(=C\c1ccc(OC(=O)c2cccs2)cc1)c1nc2ccccc2[nH]1 | -5 | . | 5.5 | . | 71 | 2% | 1.4
O=C(OCC(=O)N1CCCCC1)c1c[nH]c2ccccc12 | 1 | -2 | . | 0.0 | . | -3% | -2.5
COc1ccc(-c2c(NC(=O)c3ccco3)oc3ccccc3c2=O)cc1OC | 11 | 1 | 4.0 | 0.9 | 9 | . | 5.6
CN(CC1CCCO1)S(=O)(=O)c1ccc(C(=O)NCc2ccccc2)cc1 (stereo not given) | -14 | -5 | -0.4 | 2.7 | ? | -3% | 3.4
CCOC(=O)C(C(=O)OCC)C(Nc1ccc(Br)cc1)c1ccccc1 (stereo not given) | 8 | 9 | 0.8 | -1.0 | 4 | 26% | 2.9
Nc1nc(-c2ccccc2)[nH]c(=O)c1N | -8 | -14 | 4.1 | 2.4 | -9 | ? | -2.8
COc1ccc(NC(=O)c2cccc(S(=O)(=O)NCc3ccccc3)c2)cc1S(N)(=O)=O | 6 | -17 | . | 6.0 | . | . | -1.8
CC1(C)CSC(=NCCc2ccccc2)N1C(=O)c1ccc(C#N)cc1 | 1 | . | -0.8 | . | 5 | . | -2.5
CCN1CCN(C(=O)c2ccc3c(c2)N(Cc2ccc(F)cc2)C(=O)c2ccccc2S3=O)CC1 (stereo not given) | -4 | -6 | ? | -4.4 | 4 | -3%&-1% | 3.5
CCC(=O)c1cn(CC(=O)Nc2ccc(C)cc2)c2ccccc12 | -8 | 4 | 4.3 | 5.2 | 0 | . | 1.3
Cc1cnc(C(=O)OCc2cc(=O)n3c(C)cccc3n2)cn1 | 11 | 4 | . | -0.5 | . | -3% | -2.0
CCOC(=O)n1c(=O)oc2ccc(Cl)cc21 | 12 | -6 | ? | 5.1 | ? | 4% | -0.8
CCn1c(=O)cc(OCC(=O)N(C)c2ccccc2F)c2ccccc21 | -23 | -6 | 3.1 | -12 | 10 | 3% | 5.5
O=C(CN1C(=O)c2ccccc2S1(=O)=O)c1ccccc1F | 4 | -10 | 4.0 | 0.9 | -4 | -9% | 0.7
Cc1nn(Cc2ccc(C(=O)n3cccn3)o2)c(C)c1Br | 6 | -8 | -3.2 | 2.4 | 2 | 13% | 6.5
CCCCN(CCCC)C(=O)CN(C)S(=O)(=O)c1ccc2c(c1)n(C)c(=O)c(=O)n2C | -4 | . | 4.9 | 2.6 | 4 | 13% | 1.5
CN(C)c1ccc(NC(=O)CSc2n[nH]c(-c3ccco3)n2)cc1 | -2 | 99* | ? | 4.5 | 0 | 3% | -0.5
CCC(=O)c1ccc(OCC(O)CN2CCc3ccccc3C2)cc1 (stereo not given) | -6 | 7 | 0.2 | 4.6 | -3 | . | 1.0
Cc1nn(-c2ccc(N3CCOCC3)nn2)c(C)c1CCC(=O)NCc1ccccc1F | -7 | -7 | 8.3 | -1.6 | -6 | . | 0.6
O=C(Nc1ccc(S(=O)(=O)NC2CCCC2)cc1)c1cnccn1 | 2 | -2 | -4.7 | 1.7 | -12 | 15% | 1.8
CC(=O)N/C(=C\c1ccc(F)cc1)C(=O)OC(C)C | 1 | 1 | 1.7 | 2.0 | -8 | . | 1.2
Cc1c2cnn(-c3ccccc3)c(=O)c2c(C)n1CCCC(=O)NCCN1CCN(C)CC1 | 1 | 5 | -3.3 | -3.3 | 3 | 3% | 12
COc1ccc(C(=O)CC2OC(=O)c3ccccc32)cc1OC (stereo not given) | 8 | -17 | -6.4 | 1.1 | 6 | -5% | -3.5
Cc1ccccc1C(=O)NCCCc1ccccc1 | -5 | -4 | 2.6 | 9.4 | 2 | 1% | -1.4
Cc1nc2ccccc2n1CC(=O)N/N=C/c1cccs1 | 6 | -31 | ? | 3.6 | 2 | . | -0.6
CCN(C(=O)C1CCN(c2nc(-c3ccc(OC)cc3)no2)CC1)c1ccc(OC)cc1 | 8 | -6 | ? | -1.7 | -2 | . | 1.5
Cc1c(C(=O)Nc2ccc(S(=O)(=O)N(C)C3CCN(C)CC3)cc2)oc2ccccc12 | 29 | 3 | . | -2.9 | . | -14% | 0.2
Cc1ccc(N(CC(=O)O)S(C)(=O)=O)cc1 | -2 | -2 | 9.2 | -3.0 | -19 | -5% | 2.4
Cc1ccc(N2C(=O)c3cccc4c(N5CCN(C)CC5)ccc(c34)C2=O)c2cccnc12 | . | 15 | i | 14 | -3 | 0% | .
CCOC(=O)C1=C(O)CSC1=Nc1ccccc1 | -6 | 5 | 3.6 | 0.2 | -2 | 0% | 3.8
COc1ccc(-n2nnc3c(SCC(=O)c4ccccc4)ncnc32)cc1 | -5 | -2 | 0.6 | 1.4 | -20 | 3% | -2.1
CCOc1ccc(NC(=O)c2c[nH]n3c(=O)cc(C4CCN(C(=O)OC(C)(C)C)CC4)nc23)cc1 | -10 | . | -2.0 | -0.4 | 18 | 9% | -4.0
O=C1OCCC1S(=O)(=O)c1ccc2ccccc2c1 (stereo not given) | -1 | -2 | . | -4.4 | 6 | ? | 0.6
CCN(CC)CCn1c(NC(=O)c2ccc(C(F)(F)F)cc2)nc2ccccc21 | -6 | -4 | 0.4 | 4.6 | -25 | -3% | 5.2
COc1ccc(Cc2nnc(SCC(=O)N3CCN(c4ccccc4)CC3)o2)cc1 | -8 | 4 | 8.8 | -3.7 | 9 | -2% | -0.3
CC1=C(C#N)C(/C=N/OCc2ccc(Cl)cc2)CC(=O)N1 (stereo not given) | -8 | -3 | 4.7 | 3.1 | 23 | -4% | -0.5
COc1cccc(CNc2ccc(Br)cn2)c1O | -1 | 34 | -5.3 | 0.3 | -38 | -4% | 2.1
CCN1C(=S)N[C@@H](CCc2ccccc2)[C@H](C(=O)OC)[C@H]1C | -7 | 2 | -2.2 | 2.7 | 5 | . | 2.2
N#C/C(=C/c1ccc(CNS(=O)(=O)c2ccccc2)o1)C(=O)NCc1ccccc1 | 5 | -4 | -1.0 | -5.2 | 0 | 6% | 7.1
CC(=O)c1c(C)[nH]c(C(=O)CSc2nnc(CN3CCCCCC3=O)n2-c2ccccn2)c1C | -7 | 14 | -1.2 | 0.6 | -4 | 2%&2% | 0.0
COC(=O)CN1C(=S)N(c2ccc(F)cc2)C(=O)C1CC(=O)Nc1ccc(OC)cc1 (stereo not given) | -5 | -6 | 4.1 | -7.3 | 5 | -3% | 1.3
Cc1ccsc1C(=O)N1CCN(c2ncccn2)CC1 | -5 | 2 | . | . | . | -2% | -3.7
CCCc1nnc(SCC(=O)N2CCCCC2C)n1CCCOC (stereo not given) | -7 | . | -1.2 | 1.9 | -1 | -6% | 1.0
NC(=O)CSCc1nc2ccccc2s1 | -5 | . | 2.2 | 2.4 | -4 | 0% | -0.4
C=CCn1c(N)nc2ccccc21 | 3 | -12 | 7.0 | 1.4 | 82* | 2% | 3.6
CCCCc1ccc(NC(=O)CSc2nc(=O)n(CCCN3CCOCC3)c3c2CCC3)cc1 | 5 | 99* | 6.3 | -2.2 | 19 | 0% | 0.1
CCOc1ccc(-n2c(SCc3cc(=O)oc4cc(C)c(C(C)C)cc34)nnc2-c2cccnc2)cc1 | -9 | 3 | 1.4 | -5.3 | 46 | 0% | -2.8

Rewritten in CSV form: part of the list above
Molecule,Beta2AR agonist,ALR inh,RanGTP-Impb inh,LANA-H2B inh,Calb FLC,Vif TR-FRET,HNF4A DNA FP
CC1=C(C#N)C(/C=N/OCc2ccc(Cl)cc2)CC(=O)N1 (stereo not given),-8,-3,4.7,3.1,23,-4%,-0.5
COc1cccc(CNc2ccc(Br)cn2)c1O,-1,34,-5.3,0.3,-38,-4%,2.1
CCN1C(=S)N[C@@H](CCc2ccccc2)[C@H](C(=O)OC)[C@H]1C,-7,2,-2.2,2.7,5,.,2.2
N#C/C(=C/c1ccc(CNS(=O)(=O)c2ccccc2)o1)C(=O)NCc1ccccc1,5,-4,-1.0,-5.2,0,6%,7.1
CC(=O)c1c(C)[nH]c(C(=O)CSc2nnc(CN3CCCCCC3=O)n2-c2ccccn2)c1C,-7,14,-1.2,0.6,-4,2%&2%,0.0
COC(=O)CN1C(=S)N(c2ccc(F)cc2)C(=O)C1CC(=O)Nc1ccc(OC)cc1 (stereo not given),-5,-6,4.1,-7.3,5,-3%,1.3
Cc1ccsc1C(=O)N1CCN(c2ncccn2)CC1,-5,2,.,.,.,-2%,-3.7

The list goes on.
SMILES | Beta2AR agonist | ALR inh | RanGTP-Impb inh | LANA-H2B inh | Calb FLC | Vif TR-FRET | HNF4A DNA FP
NCCCC[C@H](NC(=O)C1CCNCC1)c1nnc([C@@H](N)CO)o1 | 0 | . | 1.4 | 1.9 | 9 | -3% | 0.1
CC1CCCC(NC(=O)COc2ncnc3ccccc23)C1C (stereo not given) | -7 | . | . | 0.4 | . | -10% | -1.0
CCOC(=O)CC(NC(=O)c1ccccc1)c1ccc(OC)cc1 (stereo not given) | 8 | 6 | 3.1 | 0.0 | 7 | 0% | 2.0
CC(=O)c1ccc(OCCCC(=O)n2nnc3ccccc32)cc1 | 10 | 8 | -1.9 | 2.8 | 4 | 1% | 0.4
N=c1ccn(Cc2ccc(F)cc2)cc1 | -6 | -2 | -1.8 | -0.2 | -9 | 28% | -2.5
CCOC(=O)c1ccc2[nH]c(C)cc(=O)c2c1 | 0 | -3 | 1.7 | -2.8 | -1 | -2% | -2.0
CCCC(O)(CCC)C(=O)NNc1ccccc1 | 1 | 38 | -0.5 | 5.5 | -33 | 27% | 0.0
CCN(CC)S(=O)(=O)c1ccc2nc(CSc3nnnn3-c3ccc(O)cc3)[nH]c2c1 | -2 | -2 | 2.7 | 0.7 | 2 | -4% | 2.0
COc1ccc(C2C(C(N)=O)=C(C)Nc3nc(-c4ccccc4Cl)nn32)c(OC)c1 (stereo not given) | 0 | . | -1.2 | -1.7 | 2 | -2% | 4.7
CS(=O)(=O)N1CCc2cc(-c3csc(NC(=O)Cc4cccs4)n3)ccc21 | 4 | 17 | 0.5 | 4.7 | ? | -3%&-10% | 3.6
C/C(=N\NC(=O)c1cc(Br)ccc1O)c1cccc(NC(=O)c2ccccc2F)c1 | -1 | 2 | -1.4 | 5.1 | 10 | -6% | -1.7
NC(=O)CSc1nnc(-c2ccc(S(=O)(=O)N3CCOCC3)cc2)n1Cc1ccccc1 | -5 | 1 | -2.2 | 1.2 | 1 | 4%&0% | 2.1
CCCN1CCN(C(=O)c2cccc3c2C(=O)N(CCOC)C3)CC1 | 6 | -3 | 0.8 | -2.6 | 3 | 32% | 0.7
Cc1ccc(C(C(=O)NC(C)(C)C)N(C(=O)c2csnn2)c2ccccc2F)o1 (stereo not given) | 0 | -7 | 1.2 | -0.5 | -2 | 4% | 2.1
O=C(CN(C(=O)c1csnn1)c1cccc2c1CCCC2)NCc1ccccc1 | 1 | -1 | 0.7 | -1.1 | -5 | . | -0.6
COc1ccc(/C=N\Nc2ccccn2)c(OC)c1 | -4 | 12 | -3.9 | -2.3 | -10 | . | 3.7
C=CCn1c(C)nnc1SCC(=O)c1[nH]c(C)c(C(C)=O)c1C | -2 | . | -0.3 | 1.6 | 30 | 25% | 3.0
